KCNQ2 block – KCNQ2 potassium channel inhibitors, primary screen, cell-based, CHO-K1, FluxOR thallium flux, B-score (AID 2156); 20 min; stronger effect = lower value; only compounds with negative scores are shown here; some inactives read as strong as hits; B-score at 10 µM; 310,000 compounds, 1.1% hits;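 active = fluorescence ratio B-score at most minus 3 library SDs, with starting brightness B-score within 2 library SDs, cut at about -5.5 in these data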
Target sequence (O88943 whole entry, looked up): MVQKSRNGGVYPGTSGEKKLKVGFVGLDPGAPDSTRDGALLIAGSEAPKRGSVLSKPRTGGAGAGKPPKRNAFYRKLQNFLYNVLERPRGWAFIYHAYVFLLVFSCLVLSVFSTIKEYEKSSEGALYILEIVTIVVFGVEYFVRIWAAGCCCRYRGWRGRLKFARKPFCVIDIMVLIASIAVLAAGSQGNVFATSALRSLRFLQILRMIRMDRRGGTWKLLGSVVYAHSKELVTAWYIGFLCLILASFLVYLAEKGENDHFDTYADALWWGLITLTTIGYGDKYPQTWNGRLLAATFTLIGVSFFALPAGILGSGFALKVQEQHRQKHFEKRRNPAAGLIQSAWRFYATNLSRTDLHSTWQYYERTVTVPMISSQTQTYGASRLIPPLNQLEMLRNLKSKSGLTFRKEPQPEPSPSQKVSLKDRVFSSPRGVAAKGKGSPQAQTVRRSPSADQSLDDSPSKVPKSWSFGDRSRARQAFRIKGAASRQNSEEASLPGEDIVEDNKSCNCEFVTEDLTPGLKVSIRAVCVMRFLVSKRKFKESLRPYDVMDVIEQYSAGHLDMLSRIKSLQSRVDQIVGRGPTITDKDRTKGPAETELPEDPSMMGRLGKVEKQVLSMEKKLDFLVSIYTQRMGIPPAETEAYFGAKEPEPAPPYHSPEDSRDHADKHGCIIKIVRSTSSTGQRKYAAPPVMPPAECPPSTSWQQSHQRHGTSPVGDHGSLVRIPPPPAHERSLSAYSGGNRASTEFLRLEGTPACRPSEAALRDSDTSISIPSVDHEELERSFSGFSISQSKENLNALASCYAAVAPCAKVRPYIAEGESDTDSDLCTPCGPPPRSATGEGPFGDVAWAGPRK
KCNQ2 block baseline – recorded beside KCNQ2 block, whose call it bears; B-score; measured here: initial fluorescence intensity artifact check;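 brightness before thallium and not channel activity; 0 = typical well and far values either way flag optical interference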
An asterisk follows results filed as active; i = inactive. This is a subset. The share of hits here may be higher or lower than overall.

SMILES	KCNQ2 block	KCNQ2 block baseline
CN1CCN(C(=O)CCn2nc(-c3ccccc3)c3ccccc3c2=O)CC1	i	0.59
CCN1C(=O)N[C@@H](c2ccco2)C(C(=O)OC)=C1C	i	2.98
Cc1cc2ncn(C(=O)c3ccc4c(c3)OCO4)c2cc1C	i	0.56
CCCNC(=O)COc1coc(CN2CCN(c3cccc(Cl)c3)CC2)cc1=O	i	-0.9
O=c1c2ccccc2[nH]c(=S)n1CCN1CCC(=C(c2ccc(F)cc2)c2ccc(F)cc2)CC1	i	-0.69
Brc1ccc(-c2cn3ccccc3n2)s1	i	-0.16
Cc1occc1-c1nnc(SCC(=O)NC2CCCC2)n1-c1ccccc1	i	0.56
CC1=NN(C(C#N)c2ccccc2C)C(c2ccccc2)C1 (configuration not stated)	i	-0.21
CC(C)(C)C1CCC2(CC1)C(C#N)=C(SCC(=O)NC1CCCCC1)NC(=O)C2C#N (configuration not stated)	i	-3
COc1ccc(-c2cn[nH]c2-c2ccc(OC)cc2)cc1	i	-0.12
Cc1ccc2c(CSc3nc4ccccc4c(=O)n3CCCO)cc(=O)oc2c1C	i	1.33
O=C(OCc1ccc([N+](=O)[O-])cc1Cl)c1cnccn1	i	-0.03
Cc1ccc(C)c(S(=O)(=O)N2CCN(CC(=O)Nc3cc(C)on3)CC2)c1	i	-0.5
CC(C(=O)Nc1sc2c(c1C(=O)NCC1CCCO1)CCC2)N1C(=O)c2ccccc2C1=O (configuration not stated)	i	-0.43
Cc1ccc(NC(N)=S)cc1	i	-0.52
Cc1nc(NC(=O)C23CCC(C)(C(=O)O2)C3(C)C)sc1C (configuration not stated)	i	1.11
COc1ccc(OC)c(/C=N/NC(=S)NCCc2ccccc2)c1	i	-1.69
O=C(Nc1ccccc1)/C(=C\c1cccs1)NC(=O)c1ccccc1	i	0.73
O=C(O)CN1C(=O)/C(=C\c2cn(-c3ccccc3)nc2-c2ccccc2)SC1=S	i	-1.73
N#Cc1sc2nc(-c3ccccc3)cc(C(F)(F)F)c2c1N	i	3.56
CC(=O)c1c(COC(=O)c2ccccc2Cl)nc2ccccc2[n+]1[O-]	i	2.32
CCOC(=O)c1c(S(=O)(=O)NCc2ccc(C)o2)c(C)n(C)c1C	i	-0.19
Cc1ccc(S(=O)(=O)N2CCC(C(=O)OCC(=O)N(C)C3CCCCC3)CC2)cc1C	i	-3.22
CC1CC(C)CN(c2ccc(-n3cnnn3)cc2[N+](=O)[O-])C1 (configuration not stated)	i	-1.76
Clc1ccc(/C=C/c2nc3ccccc3[nH]2)cc1	i	0.4
CN(C)S(=O)(=O)c1ccc(S(=O)(=O)N2CCN(CCC#N)CC2)cc1	i	0.32
CCOC(=O)N1CCN(/C=C(\C#N)c2nc3ccccc3s2)CC1	i	-1.02
CCOC(=O)C1(c2ccccc2)NC(c2ccccc2C)C2C(=O)N(c3ccc4c(c3)OCO4)C(=O)C21 (configuration not stated)	-6.96*	-0.26*
c1ccc2c(c1)CCN(C1CCCCC1)C2	i	-0.96
CC(C)NC(=O)CN1CCC(c2nc3ccccc3[nH]2)CC1	i	-0.14
CCN1CCOC(CC(=O)Nc2ccc([N+](=O)[O-])cc2)C1=O (configuration not stated)	i	-2.66
CCC(=O)c1ccc(OCC(O)CNCCc2ccc(Cl)cc2)cc1 (configuration not stated)	i	-1.13
O=C(NCc1ccc(F)cc1)C1CCN(S(=O)(=O)c2cccc3nonc23)CC1	i	0.12
C=CCOc1c(CNc2cccc(C(=O)O)c2)cccc1OCC	i	0.64
O=S(=O)(NCCC1=CCCCC1)c1ccc(OC(F)(F)F)cc1	i	0.63
Cc1ccc(C(=O)Oc2cc(N)n(S(=O)(=O)c3ccc(C)cc3)n2)cc1	i	1.29
O=C(CNC(=O)c1cccc(Cl)c1)NCCCSc1ccccc1	i	2.91
CC(C)(C)n1ncc2c(=O)n(CC(=O)NCc3ccco3)cnc21	i	2.8
O=C(NN=C1C2CC3CC(C2)CC1C3)c1cc(Cl)ccc1O	i	-1.04
CCOc1ccccc1N1CC(C(=O)N2CCOCC2)CC1=O (configuration not stated)	i	-0.02
COc1cccc(C(=O)Nc2ccc(C(F)(F)F)n(C)c2=O)c1	i	0.05
O=C(COC(=O)CNC(=O)c1ccccc1F)Nc1cccc(S(=O)(=O)N2CCCCCC2)c1	i	0.07
CC1=CSC2=NC(=O)/C(=C/c3cccc(OC(=O)c4ccco4)c3)C(=N)N12	i	0.41
CC(C)(C)NC(=O)C(c1cccs1)N(Cc1cccs1)C(=O)c1ccc(CN2CCOCC2)o1 (configuration not stated)	i	-0.77
COC(=O)c1ccc(CSc2nnc(Nc3cccc(OC)c3)s2)o1	i	1.78
N#CC1=C(N)OC2=C(CC/C2=C\c2ccc(F)cc2)C1c1ccc(F)cc1 (configuration not stated)	i	2.18
O=C(c1cccc(F)c1)N1CCC(O)(c2cccnc2)CC1	i	0.34
Cc1cc(C)c2c(N)c(C(=O)c3ccc(Cl)cc3)sc2n1	i	-0.49
CCOCCc1nnc(NC(=O)CN2C(=O)c3ccccc3C2=O)s1	i	1.45
COc1ccccc1NC(=O)CN(Cc1ccco1)C(=O)c1ccc(=O)[nH]c1	i	0.24
CCOc1ccc(C(=O)CN2CCN(S(=O)(=O)c3ccc(OC)cc3)CC2)cc1	i	1.09
NC(=O)NCc1cccs1	i	1.62
Cc1cc(=O)oc2cc(NC(=O)c3ccnn3C)ccc12	i	3.21
O=C(CSc1nnc(-c2ccccc2)c2ccccc12)NCC1CCCO1 (configuration not stated)	i	-0.22
CNc1nc(NCc2ccccc2)nc(N)c1[N+](=O)[O-]	i	0.36
COc1ccc(NC(=O)c2ccc3nc(-c4ccccc4)c(-c4ccccc4)nc3c2)c(OC)c1	i	1
O=C1CNC(=S)N1Cc1ccccc1Cl	i	-0.06
CC(C)(C)C(=O)NC(=S)Nc1ccccc1N1CCCC1	i	-0.42
CN(C(=O)c1ccno1)c1nnc(-c2cnccn2)s1	i	-1.28
Cn1ncc(Cl)c1C(=O)Nc1ccc(CN2CCCCC2)cc1	i	0.38

Carrying on:
SMILES	KCNQ2 block	KCNQ2 block baseline
Cn1cc(Cl)c(C(=O)Nc2nc3ccc([N+](=O)[O-])cc3s2)n1	i	-0.55
Cc1cc(C)n2c(=O)c3ccc(Cl)cc3nc2c1C#N	i	-1.06
Cc1ccc2c(CN3CCN(S(=O)(=O)c4ccc5c(c4)OCCO5)CC3)cc(=O)oc2c1C	i	-1.18
O=C(NN1C(=O)C2C3c4ccccc4C(c4ccccc43)[C@@H]2C1=O)c1ccccc1 (some centres not stated)	i	1.14
CC(C)(C)NC(=O)C(c1ccco1)N(C(=O)Cn1nnc(-c2ccc(F)cc2)n1)c1cccc(F)c1 (configuration not stated)	i	-0.59
Cc1cc2ccccn2c1C(=O)Nc1ccccc1	i	-0.25
COc1ccc(C(c2nnnn2CC2CCCO2)N2CCN(c3ccccc3)CC2)cc1 (configuration not stated)	i	-0.84
Cc1ccc(CSc2nnc(SCC(=O)N/N=C/C=C/c3ccco3)s2)cc1	i	2.45
NNC(=O)c1nnn(-c2nonc2N)c1CN1CCCC1	i	0.14
COc1ccccc1N1C(=O)c2cccc3c(Cl)ccc(c23)C1=O	i	-0.34
CCCc1cc(=O)oc2c3c(c4c(c12)OC(C)(C)C=C4)OC(C)C(C)C3O (configuration not stated)	i	-1.4
O=C(Oc1nsnc1N1CCOCC1)c1ccccc1	i	3.23
CC1(C)Cc2cccc(OCC(=O)Nc3ccccc3C(F)(F)F)c2O1	i	-0.14
Cc1ccc(S(=O)(=O)N(CC(=O)NCC2CCCO2)Cc2cccc(C)c2)cc1 (configuration not stated)	i	-1.04
CC(=O)c1ccc(OCC(=O)c2cc(C)n(-c3ccc4c(c3)OCO4)c2C)cc1	i	1.69
Cc1nc2ccccc2c2c(N)c3ccccc3n12	i	0.46
Cc1ccc2cc3c(N)c4c(C)ccc(C)c4nc3nc2c1	i	1.44
C=CSc1sc(Cl)c(N(CC)CC)c1[N+](=O)[O-]	i	0.05
COCc1cc(C)n(CC(=O)Nc2ccccc2OC)c(=O)c1C#N	i	0.45
O=C(Cc1coc2ccc3ccccc3c12)N1CCN(c2ncccn2)CC1	i	0.82
O=C(O)CCN1C(=O)C2C3CC(C2C1=O)C1C(c2ccccc2)c2sc(=O)n(-c4ccccc4)c2SC31 (configuration not stated)	i	-0.33
CNC(=O)c1ccsc1NC(=O)C1CCN(S(=O)(=O)c2ccc(Cl)s2)CC1	i	-2.75
COc1ccc(OCC(=O)OC2CCCN(C)C2)cc1 (configuration not stated)	i	1.76
Cn1c(SCC(=O)NNC(=S)Nc2ccccc2)nnc1-c1ccccc1	i	1.71
O=C(Cc1cc(=O)[nH][nH]1)N/N=C/c1cccc(Cl)c1Cl	i	3.18
COC(=O)C1C2CCC(C2)C1C(=O)OCC(=O)c1ccc(C)cc1 (configuration not stated)	i	-0.97
COc1ccc(-c2nc(C=O)cs2)cc1	i	-0.01
O=C(Nc1ccc(C(=O)O)cc1)Nc1cccc2ccccc12	i	-1.35
CNc1ccc(SC#N)cc1	i	1.07
CCc1nnc(NC(=O)CSc2nc3ccccc3c(=O)n2CCCOC)s1	i	1.49
O/C(=C\c1ccc2ccccc2n1)c1ccncc1	i	2.36
O=C(NC(=S)Nc1ccc(S(=O)(=O)Nc2nccs2)cc1)C1CC1	i	2.42
CCN(CC)C(=O)NCc1c(C)cc(C)cc1C	i	0.58
COc1nc(Oc2ccc(C(=O)OCC(N)=O)cc2)nc(N(C)C)n1	i	1.27
C/C(=N\NC(=O)c1ccc(CN(C)S(=O)(=O)c2ccc(C)cc2)cc1)c1ccc(OC(F)F)cc1	i	0.1
C/C(=N/NC(=S)Nc1ccccc1)c1ccc2c(c1)OCO2	i	-0.9
O=C(COc1ccccc1)Nc1ccc2[nH]ncc2c1	i	-0.91
Cc1ccc(NC(=O)COc2ccc(C(=O)NCCc3ccccc3)cc2)cc1	i	-0.98
CN(CC(=O)Nc1ccccc1Cl)C(=O)c1ccc(COc2ccccc2)cc1	i	-2.15
O=C(O)CC1NC(=S)N(c2ccccc2)C1=O (configuration not stated)	i	-0.97

In another format: five of the compounds above.
SMILES,KCNQ2 block,KCNQ2 block baseline
Cc1ccc(NC(=O)COc2ccc(C(=O)NCCc3ccccc3)cc2)cc1,i,-0.98
COc1nc(Oc2ccc(C(=O)OCC(N)=O)cc2)nc(N(C)C)n1,i,1.27
O=C(NC(=S)Nc1ccc(S(=O)(=O)Nc2nccs2)cc1)C1CC1,i,2.42
O=C(O)CCN1C(=O)C2C3CC(C2C1=O)C1C(c2ccccc2)c2sc(=O)n(-c4ccccc4)c2SC31 (configuration not stated),i,-0.33
CN(CC(=O)Nc1ccccc1Cl)C(=O)c1ccc(COc2ccccc2)cc1,i,-2.15

Further records.
SMILES	KCNQ2 block	KCNQ2 block baseline
O=C(c1ccc(S(=O)(=O)N2CCCC2)cc1)N1CCN(c2cccc(Cl)c2)CC1	i	1.86
CCn1c(SCC(=O)NCCOC)nc2sc(C)c(C)c2c1=O	i	-0.33
COc1ccc(-c2noc(N3CCC(C(=O)Nc4cccc(OC)c4)CC3)n2)cc1	i	1.22
COc1ccc(S(=O)(=O)N2CCCC2CNC(=O)C(=O)NCc2ccc(C)cc2)cc1 (configuration not stated)	i	0.6
Cc1cccc(NC(=O)CCC(=O)N/N=C/c2ccc(O)cc2O)c1	i	-1.32
Cc1ccccc1-c1nc(CS(=O)(=O)CC(=O)N2CCOCC2)c(C)o1	i	-0.62
CC(C)CNC(=O)c1c2c(nc3ccccc13)-c1ccccc1CC2	i	-0.29
O=C(Nc1cc(C(F)(F)F)ccc1Cl)c1cc(C2CC2)on1	i	-0.1
c1ccc(C2=Nc3c(ccc4ccccc34)C(c3ccncc3)=NN2)cc1	-11.8*	-1.56*
CN(C(=O)c1cccn(Cc2ccccc2)c1=O)c1ccccc1	i	-0.81
COc1ccc(-c2cc(C3CCN(CC(O)C(F)(F)F)CC3)[nH]n2)cc1 (configuration not stated)	i	-0.98
CN(C)S(=O)(=O)c1ccccc1C#N	i	0.47
O=C(NCCCCc1ccccc1)C1CC(c2cccc(F)c2)=NO1 (configuration not stated)	i	0.14
COc1ccc(CC(=S)NCCc2ccccc2)cc1	-6.02*	-1.77*
CCN1CCN(CCCN(Cc2cccs2)C(=S)Nc2ccccc2C)CC1	i	1.91
O=C1C(=O)N(Cc2cccnc2)C(c2ccc(Br)cc2)/C1=C(\O)c1ccc2c(c1)OCCO2 (configuration not stated)	i	-0.46
CSc1ccccc1NC(=O)COc1ccccc1Cl	i	0.5
CCCn1c(=O)c2ccccc2n2c(SCC(=O)Nc3cc(C)on3)nnc12	i	-1.26
Cc1cc(C)cc(NC(=O)CSc2nc(=O)n(CCCN3CCOCC3)c3c2CCCC3)c1	i	0.88
COc1cc(NC(=S)N2CCc3ccccc3C2)cc(OC)c1	i	1.29

Compound profiles, from the list above. Screens in order: KCNQ2 block	KCNQ2 block baseline
`Cc1occc1-c1nnc(SCC(=O)NC2CCCC2)n1-c1ccccc1` in the list: i	0.56
`COc1ccc(OCC(=O)OC2CCCN(C)C2)cc1` (configuration not stated) in the list: i	1.76
`CC(C)(C)C1CCC2(CC1)C(C#N)=C(SCC(=O)NC1CCCCC1)NC(=O)C2C#N` (configuration not stated) in the list: i	-3
`Cc1cccc(NC(=O)CCC(=O)N/N=C/c2ccc(O)cc2O)c1` in the list: i	-1.32
`O=C(c1ccc(S(=O)(=O)N2CCCC2)cc1)N1CCN(c2cccc(Cl)c2)CC1` in the list: i	1.86

(listing goes on)
SMILES	KCNQ2 block	KCNQ2 block baseline
CCC(C)(C)NC(=O)CN(C(=O)CCC(=O)Nc1ccccn1)c1ccc(F)c(Cl)c1	i	0.64
COc1cccc(CN(C)C(=O)c2ccccc2Sc2ccccc2C#N)c1OC	i	-0.74
O=C(O)Cn1c(-c2ccccc2)nc2ccccc21	i	-0.82
CC(=O)/C(=N/Nc1ccccc1)Sc1nnc(CCc2ccccc2)n1-c1ccccc1	i	1.14

Source: PubChem (Johns Hopkins Ion Channel Center)
